# T cruzi inh – T. cruzi replication inhibition. T. cruzi beta-gal in NIH3T3, luminescence, 90 h. inhibition, % (test concentration not listed). 300,000 compounds, 1.4% hits. AID 1885;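 active means mean inhibition across valid replicates above about 55%, limit read from the data; inconclusive means mean below that limit but half or more replicates reach it; inactive means mean below it, under half of replicates reach it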;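 further: signal also drops with host cell toxicity which is not excluded here; 0% = plate median of DMSO wells and 100% = zero luminescence signal; higher percent means less beta-gal luminescence so fewer parasites; stock transfer was 50 nL into about 50 µL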
# LANA-H2B inh – blocks KSHV LANA binding to histone H2A/H2B; 320,000 compounds, 0.6% hits; AID 2629; inhibition, % (concentration not given with the values); cell-free LANA-H2A/H2B peptide, fluorescence polarization; Q9QR71; in the data active means inhibition mostly above about 10%, no sharp cut-off; inactive means mostly below about 6.7%;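 further: stock transfer was 7.5 nL into about 10 µL; 0% = median of vehicle wells and 100% = median of positive control wells; one replicate is shown; the record names a cut of 25% in any replicate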
# Beta2AR agonist – human beta-2 adrenergic receptor agonism by FAP | P07550 | 340,000 compounds, 0.43% hits | Am2.2-beta2AR cells, FAP receptor internalization, flow cytometry; reference of the scale not given here | response, % (concentration not given with the values);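 active means response above a set limit, near 3 SD of response in nonfluorescent compounds, cut at about 42% in these data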;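 further: stock transfer was 100 nL into about 11 µL; a reference agonist was the positive control; negative values mostly stem from fluorescent compounds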
# Target sequence (P07550 whole entry, looked up): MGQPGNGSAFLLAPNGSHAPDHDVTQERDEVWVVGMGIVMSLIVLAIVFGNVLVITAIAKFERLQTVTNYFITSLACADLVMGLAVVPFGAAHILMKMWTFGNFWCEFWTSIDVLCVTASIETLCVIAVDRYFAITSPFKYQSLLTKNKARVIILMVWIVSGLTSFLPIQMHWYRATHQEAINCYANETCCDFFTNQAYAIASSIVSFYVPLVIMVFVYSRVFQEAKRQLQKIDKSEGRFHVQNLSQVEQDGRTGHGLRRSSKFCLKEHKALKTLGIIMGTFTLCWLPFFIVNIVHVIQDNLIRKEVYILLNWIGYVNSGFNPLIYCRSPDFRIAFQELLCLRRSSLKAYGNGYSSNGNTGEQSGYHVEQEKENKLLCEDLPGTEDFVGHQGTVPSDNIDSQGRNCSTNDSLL
# RanGTP-Imp inh – disruptors of Ran-importin-beta complex formation – biochemical, FRET, CFP-Ran, YFP-importin-beta, homogeneous, primary screen; 300,000 compounds, 1.1% hits; inhibition, % (no concentration beside the values); cell-free CFP-Ran/YFP-importin-beta FRET ratio;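 active means most replicates above 15%; inconclusive means exactly half above 15%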;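 further: 0% = DMSO wells and 100% = Ran loaded with GDP instead of GTP; wells of about 40 µL received 100 nL stock; the first replicate is given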
# Calb FLC – affects C. albicans growth with fluconazole; AID 1979; 300,000 compounds, 0.57% hits; C. albicans CaCi-2 (fluconazole-resistant clinical isolate) + fluconazole, Alamar Blue growth, 48 h; growth inhibition, % (concentration not given with the values);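 active means most replicates above 75%; inconclusive means exactly half above 75%; inactive means most below 75%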;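 further: all wells also contain fluconazole at 8 µg/ml as a sub-toxic cotreatment; 0% = median of DMSO wells and 100% = median of geldanamycin control wells; wells of about 8 µL received 7.5 nL stock; the first replicate is given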
# Bfl-1 A1 inh – inhibitors of the anti-apoptotic protein A1, read as caspase activation; caspase activation, % (test concentration not listed); AID 2462; MEF A1-2A-BIM cells, Caspase-Glo 3/7 luminescence, 3 h; percent of clofoctol response, vehicle zero; 330,000 compounds, 0.066% hits;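 active means over half of replicate activation scores above 10%, or exactly half above 10 with the replicate mean above 10; inconclusive means replicate mean below 10 yet half the replicates above 10; inactive means over half of replicates below 10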;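 further: wells of about 30 µL received 50 nL stock; many hits fall short of the cut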
# UCH37 DUB inh – blocks the human deubiquitinase UCH37 | Q9Y5K5 | purified proteasome/UCH37, Ub-AMC cleavage fluorescence | inhibition, % (concentration not given with the values) | 330,000 compounds, 0.33% hits | AID 588478;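 active means mean of two replicates above 20%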;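 further: 0% = compound-free wells with enzyme and 100% = wells lacking proteasome; stock transfer was 100 nL into about 20 µL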
# Target sequence (Q9Y5K5 whole entry, looked up): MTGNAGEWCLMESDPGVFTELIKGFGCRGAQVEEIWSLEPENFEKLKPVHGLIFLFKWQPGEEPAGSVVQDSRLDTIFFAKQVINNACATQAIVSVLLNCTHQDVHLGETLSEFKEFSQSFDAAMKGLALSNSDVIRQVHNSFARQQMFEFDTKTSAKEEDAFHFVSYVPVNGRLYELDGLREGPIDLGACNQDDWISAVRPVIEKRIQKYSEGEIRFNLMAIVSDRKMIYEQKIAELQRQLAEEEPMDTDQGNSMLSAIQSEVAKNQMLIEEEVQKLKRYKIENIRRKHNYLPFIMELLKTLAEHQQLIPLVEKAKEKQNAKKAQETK
#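 Test system – human UCH37 enzyme supplied as purified proteasome complex · Incubation – 30 min preincubation with enzyme, 25 min cleavage at room temperature · Detection – AMC fluorescence from Ub-AMC cleavage, excitation 355 nm, emission 460 nm · Benchmarks – no-proteasome wells (full inhibition) and compound-free wells (no inhibition)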
# Beta apoptosis – blocks beta cell apoptosis; INS-1E cytokine-induced death, ATP luminescence, 48 h; percent of positive-control rescue, neutral wells zero; protection from apoptosis, % (concentration not given with the values); 300,000 compounds, 0.8% hits;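 active means all replicates at 75% or more, or half of them and the mean; inconclusive means half reach 75% but not the mean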;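 further: 0% = cytokine-treated negative control wells and 100% = positive control rescue; higher means more ATP so stronger rescue from cytokine killing; wells of about 40 µL received 100 nL stock; the first replicate is given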
# * = called active by the depositor; i = inactive; ? = inconclusive; nt = not tested or not shown. Rows are unselected, and some 4.3% of all compounds hit somewhere here.
SMILES	T cruzi inh	LANA-H2B inh	Beta2AR agonist	RanGTP-Imp inh	Calb FLC	Bfl-1 A1 inh	UCH37 DUB inh	Beta apoptosis
CCCN(C(=O)COC(=O)CNC(=O)c1ccc2ccccc2c1)c1c(N)n(Cc2ccccc2)c(=O)[nH]c1=O	-6	-2.5	17	1.3	nt	0.7	-0.7	-6
COc1ccc(Cc2nc3ccc(C(=O)NCCc4ccccn4)cc3o2)cc1OC	4	-3.8	-2	?	0	-0.8	0.7	nt
COc1ccc(OC(C)C(=O)Nc2cccnc2)cc1 (configuration not stated)	-10	-0.8	-2	4.0	-2	0.6	6.4	-10
CC1CCN(C(=O)CN2C(=O)C(C)(C)Oc3ccc(C(=O)NC4CCCC4)cc32)CC1	30	1.6	-6	-0.2	5	-0.5	-0.4	-2
Cc1cccc(C(=O)N(CCc2ccccc2)Cc2ccccc2)c1[N+](=O)[O-]	43	0.2	11	1.8	-19	0.2	4.9	44
Cc1nc2ccc(NC(=O)c3ccc(Cl)s3)cc2s1	-2	-6.2	-19	1.7	-8	-1.9	-176	-2
O=C(CNC(=O)c1ccccc1)OC(C(=O)c1ccccc1)c1ccccc1 (configuration not stated)	6	3.5	10	-3.7	29	-0.3	2.0	-3
Cc1ccc(NC(=O)CCC(=O)NNC(=O)C(c2ccccc2)c2ccccc2)c(C)c1	-7	-3.0	3	3.3	-7	-0.1	3.4	-5
Cc1noc(C)c1S(=O)(=O)Nc1ccccc1N1CCOCC1	2	5.8	3	-2.1	7	0.3	4.9	0
O=C(NCc1ccccc1Cl)C1CCN(c2ncnc3c2nc2n3CCCCC2)CC1	-2	2.0	-10	-0.2	-5	0.5	3.8	-3
Cc1nc2nc(SCC(=O)O)nn2c(C)c1Cc1ccccc1Cl	2	3.0	1	2.2	-20	0.4	4.7	0
COc1ccc(C(=O)NNC(=O)c2ccc(S(=O)(=O)N3CCOCC3)cc2)cc1	-8	-2.9	-6	0.6	-1	-1.8	-0.1	-3
O=C(NCc1ccco1)C(c1ccccc1)N(Cc1cccnc1)C(=O)Cn1nnc2ccccc21 (configuration not stated)	30	-1.3	10	1.0	-1	-0.1	0.1	-4
COc1cc(OC)c(OC)cc1C=NCC1(c2ccccc2)CCCC1	6	3.5	6	0.2	-3	1.0	-0.2	-10
O=[N+]([O-])c1cc(CSC2=NCCN2)ccc1O	-16	nt	4	2.9	7	nt	5.1	nt
C(=N\Nc1nncc2ccccc12)/c1ccccn1	0	-2.7	-6	3.1	-6	0.3	nt	98*
CCCCCC(=O)N(Cc1ccccc1)c1c(N)n(CCOC)c(=O)[nH]c1=O	5	0.4	5	-1.0	-1	0.3	-1.8	-3
O=C(CCn1cccn1)N1CCCC(N2CCN(c3cccc(C(F)(F)F)c3)CC2)C1 (configuration not stated)	21	-3.6	0	-2.8	0	0.6	1.7	-7
CN1CCN(S(=O)(=O)c2ccc(N(C)CC(=O)Nc3ccc(F)cc3)nc2)CC1	-2	-3.1	nt	-1.5	1	0.6	0.2	-7
CCn1cc(CNC(=O)c2cc(Cl)ccc2OC)c(C)n1	2	0.3	-8	-0.4	-1	1.4	0.2	-5
CC(C)CN(C(=O)c1ccc(S(=O)(=O)N2CCCCC2)cc1)C1CCS(=O)(=O)C1 (configuration not stated)	8	nt	1	?	1	nt	1.6	nt
Cc1ccc(CCNc2ccc3ccccc3c2)cn1	-5	3.9	-5	7.5	-1	0.0	-7.3	-4
CC(C(=O)NCc1cccnc1)N1C(=O)c2ccccc2C1=O (configuration not stated)	-17	1.5	-1	0.9	-5	0.3	4.5	-4
CC1CN(C(=O)CCC(=O)NCc2ccccc2)c2ccccc2S1 (configuration not stated)	-4	-5.2	-15	-2.2	-4	0.1	6.9	-1
CC(C)=CC(=O)O[C@@H]1Cc2c(ccc3ccc(=O)oc23)OC1(C)C	nt	2.5	-2	nt	nt	0.8	-9.0	-9
O=C(CSc1nnc(-c2ccc(O)cc2)o1)Nc1ccccc1Br	-17	-4.6	-2	-0.8	-1	0.7	0.8	-2
COc1cccc(NC(=O)CN(C)C(=O)c2csc3c2CCCC3)c1	nt	2.4	0	nt	nt	0.2	1.9	-2
CCc1ccc(C(=O)COC(=O)c2n[nH]c3ccccc23)cc1	-2	-4.4	-5	0.5	11	-3.9	5.7	-5
CN(C)CCCN(C(=O)c1cc(-c2cccs2)nc2ccccc12)c1nc2c(F)cccc2s1	36	0.8	6	2.9	-3	-0.2	-25	nt
Cc1ccc(S(=O)(=O)N2CCC(C(=O)N3Cc4ccccc4C3)CC2)cc1	20	2.4	-3	-2.1	1	0.9	5.1	4
C=CCN1C=C2C(=O)C(C)(OC(=O)c3ccc(OC)cc3)C(=O)C(c3ccco3)=C2C=C1CCCC (configuration not stated)	-2	1.6	-7	-15	20	-0.7	-0.1	7
Cc1nnc(NC(=O)CSc2ncc(-c3ccccc3)[nH]2)s1	-3	-1.5	3	-0.4	-3	-0.7	0.5	4
CCCc1nc2oc(C(=O)OCC)c(N)c2c2c1COC(C)(C)C2	2	-0.4	-11	-0.7	12	-0.8	-390	-3
CCC1C(=O)N(C)CCc2ccccc21 (configuration not stated)	-11	5.3	9	-2.1	2	-1.0	3.7	0
C=CCn1c(SCC(=O)Nc2cccc(C(=O)OC)c2)nnc1C(C)NC(=O)c1cccs1 (configuration not stated)	4	-1.4	-7	?	-16	0.2	0.0	-9
Cc1ccc(C(=O)Nc2cc([N+](=O)[O-])ccc2C)cc1	-12	-3.9	3	-3.0	-6	0.0	0.4	-1
CCc1ccc(N2CC(C(=O)Nc3cccc(S(=O)(=O)N4CCCC4)c3)CC2=O)cc1 (configuration not stated)	0	1.3	-4	3.3	-5	0.3	1.1	3
COC(=O)c1cccc(NC(=O)CCCOc2cccc(C)c2)c1	-1	-1.2	5	2.2	-2	-0.7	-1.3	3
CSc1ccccc1NC(=O)Nc1ccc(F)c(Cl)c1	nt	-1.3	1	2.6	0	-6.4	3.0	10
COCC(=O)N1CCC(Oc2ccc(C(=O)N(C)C3CCCCC3)cc2)CC1	-7	0.4	-3	-1.1	9	0.6	2.1	-8
COc1cccc2c1OCC(CN1CCN(Cc3ccccc3)C(CCO)C1)=C2 (configuration not stated)	10	4.0	3	3.9	13	-0.4	1.4	12
CC(=NNC(=O)CSc1nc2ccccc2o1)c1ccco1	nt	2.9	-15	nt	nt	0.8	-0.3	6
O=C(N/N=C/c1ccccc1)c1n[nH]c2c1CCCC2	-6	3.9	-8	4.9	-2	-8.7	nt	3
COc1ccc(CCNc2nc(C)nc3c2nnn3Cc2ccccc2)cc1	-5	-2.3	-15	-0.6	-3	0.4	0.6	-3
N#Cc1ccccc1NC(=O)c1ccc2c(Cl)c3c(nc2c1)CCCC3	4	-5.9	3	5.8	-4	-1.2	-0.9	-5
O=C(NCCCn1ccnc1)c1cc(S(=O)(=O)N2CCOCC2)c(Cl)cc1Cl	2	1.5	-14	-1.7	7	1.4	-0.3	-1
CCC(=O)N1CCc2cc(Br)cc(S(=O)(=O)NCC3CCCN3CC)c21 (configuration not stated)	7	2.5	1	2.3	-1	0.2	-1.0	-1
CCCCc1nc2ccccc2c(=O)n1NC(=O)c1c(O)c2cccc3c2n(c1=O)CC3	-17	4.6	-3	-0.6	-19	-1.2	0.8	-3
O=C(Nc1ccccc1-c1nc2ccccc2s1)C1=COCCO1	38	1.2	11	5.1	?	0.6	-13	-1
O=C(/C(=C(\[O-])c1ccccc1)[n+]1ccc2ccccc2c1)c1ccc(Cl)cc1	17	-3.2	5	-9.3	-1	-0.1	10	-3
CC(C)(C)c1ccc(/C=C/C(=O)NC2CCS(=O)(=O)C2)cc1 (configuration not stated)	-15	-0.3	13	-2.8	0	0.2	0.8	2
CC(C)c1ccccc1NC(=O)COC(=O)c1c2c(nc3ccccc13)CCN(Cc1ccccc1)C2	40	-4.1	12	-5.0	20	-0.3	-5.7	0
CCN(CC(=O)NCc1cccs1)CC(=O)Nc1ccccc1C	nt	0.6	-4	nt	nt	0.7	0.5	-2
C[C@@H]1C(=O)O[C@@H]2[C@H](O)C34[C@H]5C[C@@H](C(C)(C)C)C36[C@H](OC(=O)[C@@H]6O)OC4(C(=O)O5)[C@@]12O (some centres not stated)	-10	1.4	3	-3.5	-2	-1.4	-3.1	-16
CC(C)Cc1nnc(NC(=O)C2=COCCO2)s1	nt	1.0	-1	nt	nt	0.8	3.6	0
Cc1c(NC(=O)COC(=O)c2cc3c4ccccc4n(C)c3s2)c(=O)n(-c2ccccc2)n1C	14	1.5	5	2.3	1	0.3	-62	1
C[C@@H]1COC(=O)[C@H](Cc2ccc(F)cc2)CC/C=C\C[C@@H](CC(=O)NCCO)C(=O)N1	nt	-1.3	-3	nt	nt	-0.5	-1.6	-2
Cc1cccc(CS(=O)(=O)Cc2ccc(C(=O)NCCCN3CCCC3)o2)c1	-12	0.3	-16	-1.8	?	-0.2	2.3	-1
O=C(O)C1CCCCC1C(=O)NC1C2CC3CC(C2)CC1C3 (configuration not stated)	-21	7.9	6	1.8	5	?	1.7	-5
Cc1cc(-n2c(C)cc(C(=O)CN3C(=O)NC4(CCCC4)C3=O)c2C)no1	11	-1.3	-1	3.0	3	0.6	4.1	-4

# Further records follow.
SMILES	T cruzi inh	LANA-H2B inh	Beta2AR agonist	RanGTP-Imp inh	Calb FLC	Bfl-1 A1 inh	UCH37 DUB inh	Beta apoptosis
CC(C)(C)OC(=O)N1CCC(c2c(C(=O)NCC3CCN(C4CCCC4)C3)cnn2-c2ccc(F)cc2)CC1 (configuration not stated)	32	1.0	-12	6.1	3	-0.7	-0.3	-7
CCN(CC)CCCNc1nc2ccccc2c2nc(-c3ccncc3)nn12	45	-2.9	7	-2.1	-30	-1.5	3.7	19
COc1ccc(NC(=O)CN(C)C(=O)c2cc(-c3ccc(OC)cc3)nc3ccccc23)cc1	13	-5.4	19	5.7	24	0.2	-79	5
CCCCCCCCCCNC(=O)CCn1[nH]c(=O)c2ccccc2c1=O	-4	1.3	20	3.5	7	0.6	2.7	2
N/C(=N\OC(=O)CCCOc1ccccc1)c1cccc(Br)c1	-7	-3.8	-2	8.4	-3	-0.7	-0.2	-17
COc1ccc(-c2ccc(-c3nnc(-c4cc(OC)ccc4OC)o3)cc2)cc1	-25	0.8	0	?	6	1.0	i	5
CCc1ccc(NC(=O)Cc2c(C(=O)O)n(C)c3ccccc23)cc1	-8	6.1	13	-1.9	-5	0.1	1.0	nt
O=C(Nc1ncccc1O)c1ccc(S(=O)(=O)Nc2ccccc2)cc1	-4	-4.5	-1	-2.7	-23	0.8	0.9	nt

# Screens as filed in PubChem.
